Screening data: PubChem BioAssay, National Center for Advancing Translational Sciences (NCATS)
Menin MLL FP FL: menin-MLL binding inhibition, fluorescein peptide | Fluorescence polarization, fluorescein-MLL peptide displacement from menin | FP activity change, % at 61.4 µM | 290,000 tested, under 10 active; inconclusive = falling polarisation curve, or a change in total fluorescence; inactive = total fluorescence flat and polarisation flat or rising; no compound was filed as active; the % refers to the polarisation; negative = inhibition;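 note: % of control where 0% means no effect; inhibitors lower the polarisation; unlabelled MLL peptide was the positive control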
TRPML1 blocker: inhibitors of human TRPML1 channel. TRPML1-inducible cells, Ca2+ dye fluorescence, FDSS; active compounds read low; inhibition of EC80 agonist-evoked calcium signal. activity change, negative = inhibition, % (test concentration not listed). actives 0.02% (n = 390,000); in the data active means activity change below about -50%; inconclusive means about -30% to -50%; inactive means above about -30%;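 note: stimulus is agonist 54-4 at its EC80 concentration; % is set by controls: 0 for no effect and ±100 for the full control effect; compound concentration not given in the record; the text of the record puts the active cut at -80%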
Target sequence (Q9GZU1 whole entry, looked up): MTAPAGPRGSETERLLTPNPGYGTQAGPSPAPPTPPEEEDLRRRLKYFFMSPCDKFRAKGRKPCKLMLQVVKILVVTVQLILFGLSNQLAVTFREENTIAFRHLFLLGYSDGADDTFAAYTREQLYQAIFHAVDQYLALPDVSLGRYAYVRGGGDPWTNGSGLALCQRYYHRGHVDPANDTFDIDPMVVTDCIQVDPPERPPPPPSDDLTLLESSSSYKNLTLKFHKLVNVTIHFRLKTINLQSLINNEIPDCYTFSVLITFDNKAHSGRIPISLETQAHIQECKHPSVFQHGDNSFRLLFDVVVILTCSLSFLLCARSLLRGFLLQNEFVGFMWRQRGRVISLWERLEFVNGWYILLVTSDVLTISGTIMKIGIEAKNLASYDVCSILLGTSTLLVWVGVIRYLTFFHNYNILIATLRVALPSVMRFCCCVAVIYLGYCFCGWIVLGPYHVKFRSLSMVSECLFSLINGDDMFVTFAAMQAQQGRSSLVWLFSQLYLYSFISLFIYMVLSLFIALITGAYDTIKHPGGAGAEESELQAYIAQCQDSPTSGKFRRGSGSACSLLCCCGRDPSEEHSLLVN
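TRPML1-DL cells, Tet-induced overnight (~16 h, 37 °C) at 1,500 cells/well, were loaded with Ca8 no-wash dye plus quencher for 45-90 min at room temperature. Compounds were pinned during FDSS kinetic reading; agonist 54-4 at EC80 (4 uM final) then added.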
ClpP mod: qHTS Assay for Activators of ClpP; ATP-dependent Clp protease proteolytic subunit (Bacillus subtilis (strain 168)), P80244; purified B. subtilis ClpP, FRET peptide cleavage, 20 min; Potency, µM (doses to about 57.5 µM), inactives show at the highest dose activity change, negative = active; actives 1.9% (n = 340,000); active = well fitted falling curve with a large enough effect; inconclusive = small, poorly fitted or top-dose-only effect; inactive = no such curve, though single readings can be large or run the other way; note: potency is the fitted concentration of half-maximal effect; the source files actives as falling curves though it sought activators and does not explain the sign; nearly all actives have a fitted effect of over 65% in size; many hits overshoot -100%
Target sequence (P80244 whole entry, looked up): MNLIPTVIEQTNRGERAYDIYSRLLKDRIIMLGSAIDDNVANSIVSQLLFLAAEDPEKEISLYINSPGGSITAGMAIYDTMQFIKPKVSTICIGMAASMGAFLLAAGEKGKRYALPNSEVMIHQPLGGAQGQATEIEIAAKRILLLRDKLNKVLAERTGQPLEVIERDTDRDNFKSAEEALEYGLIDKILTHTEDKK
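ClpP 10 microg/mL final, pH 8 Tris/KCl buffer with BSA, glycerol, Tween-20; compound pinned in; FRET-FV substrate; RT 20 min; Ex320/Em430; ΔFRET vs ADEP 5.8 microM, DMSO, no enzyme.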
gsp agonist: gsp mutant agonism. actives 0.13% (n = 340,000). Potency, µM (highest dose often 76.9 µM), for inactives: at the highest dose activation (cAMP increase), most hits filed as activators. gsp mutant cells, cAMP HTRF, 30 min; control for the full effect not named in the record; active = well fitted activation curve with a large enough effect; inconclusive = small, poorly fitted or top-dose-only effect, or another doubt; inactive = no such curve, though single readings can be large or run the other way; cell line not stated here;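 note: phosphodiesterase inhibitor Ro 20-1724 added with compounds to block cAMP breakdown; potency is the fitted concentration of half-maximal effect; nearly all actives have a fitted effect of over 60% in size; about a fifth of the inactives were tested at one dose only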
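Cells stably selected in G418 were plated at 2000/well, grown 16-24 hr, then given compounds in DMSO with the PDE inhibitor […] (300 uM solution added) for 30 min at 37C; cAMP was read by HTRF.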
gsp antagonist: antagonists of gsp mutant (McCune-Albright syndrome); gsp-mutant cells, cAMP HTRF, 30 min; control for the full effect not named in the record; Potency, µM (highest dose often 76.9 µM), inactives show top-dose activity change, negative = inhibition, hits mostly inhibitors; actives 0.4% (n = 340,000); AID 624288; active = falling curve of any shape with a large fitted effect; inconclusive = falling curve, mostly with a smaller effect; inactive = flat or rising curve; cell line not stated here;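 note: intracellular cAMP measured with PDE inhibitor Ro 20-1724 present during compound exposure; potency is the fitted concentration of half-maximal effect; % is set by controls: 0 for no effect and ±100 for the full control effect; nearly all actives have a fitted effect of over 65% in size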
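Measurement of cellular cAMP by homogeneous time-resolved fluorescence following a 30 min compound exposure at 37C. The PDE inhibitor […] was present throughout; the assay buffer was DPBS with 0.05% BSA and 0.005% Tween 20.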
TRPML1 ag: activates the human TRPML1 channel; activation, % (test concentration not listed); actives 0.12% (n = 410,000); TRPML1-expressing cells, Ca2+ dye fluorescence, FDSS; host cell line not named in the record; reference of the full effect not given here; Q9GZU1; in the data active = activation above about 50%; inconclusive = about 30% to 50%; inactive = below about 30%; note: 0% is about no effect; the text of the record puts the active cut at 80%
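Tetracycline-induced TRPML1-DL cells are seeded and incubated overnight before loading with a no-wash Ca2+ dye and quencher. Agonist activity is taken from the 110 s fluorescence read following compound pin-transfer on an FDSS, before EC80 54-4 challenge.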
* hit, by the source's call; ? = inconclusive; / = no result given; [ ] = remark or other dose. Rows were taken by chance; about 2.1% have a hit in one of these screens.

SMILES	Menin MLL FP FL	TRPML1 blocker	ClpP mod	gsp agonist	gsp antagonist	TRPML1 ag
O=C(CSc1ccccn1)N1CCOCC1	0.1	-11.0	1.2%	9.3%	-5.1%	0.2
O=C(c1ccc(CS(=O)(=O)c2c(Cl)cccc2Cl)o1)N1CCN(c2ccccn2)CC1	3.7	10.7	0.0%	-3.1%	-12.9%	0.2
Nc1ncnc(Oc2cccc(C(F)(F)F)c2)c1[N+](=O)[O-]	1.9	15.9	0.3%	11.7%[15.4 µM]	-0.2%	-0.1
O=C(CCn1c(=O)c2cccn2c2cccnc21)NCc1ccc(Cl)cc1	/	-9.7	-21.4%	/	/	-0.5
O=S(=O)(/C=C/c1ccccc1)Nc1cccc(S(=O)(=O)NC2=NCCC2)c1	3.4	-6.2	/	8.0%[15.4 µM]	3.9%	-0.3
C=CCOc1ccc(C2c3c(oc4ccc(C)cc4c3=O)C(=O)N2CCCN2CCOCC2)cc1 (configuration not stated)	/	10.0	-2.6%	/	/	0.1
COc1cc(CCC(=O)NCCc2ccc(F)cc2)cc(OC)c1OC	/	-13.8	-3.7%	-5.2%	9.1%	0.1
C=CCN(C(=O)c1ccccn1)C(C(=O)NCc1ccccc1)c1ccccc1F (configuration not stated)	-0.1	2.0	0.4%	-8.3%	1.7%	0.5
COc1ccc(CNC(=O)COC(=O)/C=C/c2ccc(Cl)cc2)cc1	0.8	12.6	/	25.1%[15.4 µM]	-40.1%	-0.3
Cc1ccc(C(=O)CSc2nnnn2C(C)C)c(C)c1	-0.6	-12.4	/	-21.9%[15.4 µM]	-10.5%	0.3
Cc1ccc(-c2nc(N)n(S(=O)(=O)c3ccc(C)cc3)n2)cc1	0.1	1.4	-1.5%	4.4%[15.4 µM]	4.6%	1.5
COc1ccc(NC(=O)N(C)C[C@H]2Oc3c(NS(=O)(=O)c4ccc(OC)cc4)cccc3C(=O)N([C@H](C)CO)C[C@@H]2C)cc1	/	0.6	-6.1%	-1.7%	-9.6%	-0.1
O=C(Cn1c2ccccc2c(=O)c2ccccc21)N/N=C/c1cc([N+](=O)[O-])ccc1N1CCCCC1	0.1	11.7	-14.5%	4.9%	-6.7%	-0.2
COc1cc(NC(=O)C2CCCCC2)c(OC)cc1NC(=O)CN1CCCCC1	50.9[activator]	-14.8	-2.0%	-17.2%	6.8%	-0.6
Cc1ccc2c(c1)N(CC(=O)N(Cc1ccccn1)Cc1ccco1)C(=O)C(C(C)C)O2 (configuration not stated)	0.6	12.4	0.6%	-10.4%	?	0.4
CCOc1ccccc1CNC(=O)c1cnc2sc(N3CCC(C)CC3)nn2c1=O	/	-11.5	-22.6%	/	/	-0.8
FC(F)Oc1ccc(NC(=S)Nn2cnnc2)cc1	2.2	3.5	0.2%	-8.5%	-8.0%	0.8
COc1ccccc1C(c1nnnn1CC1CCCO1)N1CCC(C(N)=O)CC1 (configuration not stated)	1.8	-12.1	-0.7%	-16.7%	0.2%	-0.3
CCOC(=O)C1C(=O)C=C(Nc2ccccc2F)CC1c1ccccc1 (configuration not stated)	-2.0	12.6	?	-21.9%[15.4 µM]	-18.7%	-0.4
Cc1ccc(-c2nc3ccc(Cl)cn3c2Cc2ccccc2C(F)(F)F)cc1	/	10.6	?	/	/	1.6
CCOc1ccc(C(=O)N2CC(=O)Nc3ccc(C)cc3C2c2ccc(F)cc2)cc1OCC (configuration not stated)	/	6.5	-6.6%	/	/	-1.3
Cc1ccccc1CN1C(=O)c2ccccc2S(=O)c2ccc(C(=O)NCc3ccc4c(c3)OCO4)cc21 (configuration not stated)	/	6.9	0.2%	/	/	0.9
CC1=Nc2ccc(C)cc2N(Cc2ccccc2)C(=O)C1	1.5	-7.3	5.2%	0.1%	4.0%	-1.2
COc1cccc(NS(=O)(=O)c2ccc3[nH]cc(C(=O)N4CCCC4)c(=O)c3c2)c1	/	0.6	?	/	/	0.7
CSCCC(NS(=O)(=O)c1ccc(Br)cc1)C(=O)OCC(=O)NC1CC1 (configuration not stated)	1.2	14.8	/	1.1%[15.4 µM]	-4.0%	2.7
Continuation.
SMILES	Menin MLL FP FL	TRPML1 blocker	ClpP mod	gsp agonist	gsp antagonist	TRPML1 ag
COc1ccc(-c2noc3c2-c2nc(-c4ccc(Br)cc4)sc2CC3)cc1	/	16.0	-8.0%	26.8%	3.1%	-0.8
CCOCCCn1c(SCC(=O)Nc2ccc(C)cc2)nc2ccccc2c1=O	/	-2.1	-2.5%	/	/	2.0
Cc1sc2ncnc(N3CCC(C(=O)Nc4nc(-c5cccs5)cs4)CC3)c2c1C	/	21.7	2.1%	-1.5%	-3.8%	-0.3
CC(=O)N1CCc2c(sc3c2c(=O)n(-c2ccccc2C)c(=O)n3Cc2cccc(F)c2)C1	/	-6.0	-15.5%	/	/	0.3
COc1cccc(S(=O)(=O)N(C)C[C@H]2OCc3cnnn3CCCC(=O)N([C@H](C)CO)C[C@H]2C)c1	/	-7.8	2.3%	-21.8%	/	0.1
CCCn1c(C)cc(/C=C(\C#N)C(=O)O)c1C	0.8	27.9	-3.6%	-21.3%	-11.3%	0.3
Cc1sc2ncnc(OCC(=O)NCC3CCCO3)c2c1C (configuration not stated)	4.3	-15.7	1.7%	?	31.2%[activator]	0.5
CC(C)(CC(=O)O)CC(=O)N1CCCN(c2nccc(C(F)(F)F)n2)CC1	-5.1	/	-3.7%	31.7%	8.9%	/
Cc1ccc(Nc2cc(C)c(O)c(C)c2)cc1	6.7	-1.0	-2.2%	-2.0%[15.4 µM]	0.9%	0.6
CSc1sc(C(=O)NNC(=O)c2ccc(Cl)cc2)c2c1C=CCC2	1.3	2.7	/	-4.2%	3.9%	-0.3
CC(C)c1nc(SCC(=O)Nc2cccc3ccccc23)n[nH]1	/	14.5	-0.6%	2.7%[15.4 µM]	0.9%	0.0
COc1cc(/C=C/C(=O)OCC(=O)N2CCC(Cc3ccccc3)CC2)ccc1O	4.0	2.9	1.2%	23.7%[15.4 µM]	?	-0.3
Cc1cc(OCc2cc(C(=O)NC(C)c3c(C)nn(C)c3C)no2)cc(C)c1Cl (configuration not stated)	/	20.1	-1.0%	10.1%	-28.6%	1.5
CNC(=O)CSc1nc2ccccc2c(=O)n1CCc1ccccc1	0.3	0.7	-0.6%	15.8%[15.4 µM]	6.2%	-0.5
O=C(C1CCN(c2nnc(-n3cccc3)s2)CC1)N1CCOCC1	0.3	-9.9	-0.3%	?	6.9%	-0.9
COc1ccc(OC)c(N=CC2=C(O)CC(C)(C)CC2=O)c1	-1.4	-0.8	-3.2%	1.2%	6.8%	0.2
CCOC(=O)C1CCCN(C(=O)Cn2ncn3c(cc4sc(CC)cc43)c2=O)C1 (configuration not stated)	/	5.1	-1.8%	/	/	0.5
CC(C)NC(=O)Cn1c(=O)c2c(ncn2Cc2ccccc2)n(Cc2ccccc2)c1=O	1.2	-26.7	-3.6%	10.5%	-6.3%	2.8
CCN1C(=O)c2ccccc2S(=O)c2ccc(C(=O)N3CCN(c4cccc(Cl)c4)CC3)cc21 (configuration not stated)	/	13.2	-1.6%	/	/	0.4
CN(C(=O)c1cccc(NC(=O)Cc2ccc(NC(=O)C3CCN(C(=O)C4CCCCC4)CC3)cc2)c1)C1CC1	/	-1.2	-1.4%	/	-6.0%	1.1
O=C(NC1CC2CCC(C1)N2Cc1ccccc1)c1cccc(F)c1 (configuration not stated)	?	-14.1	-0.9%	20.6%	3.2%	-0.4
CCn1c(=O)cc(N2CCN(Cc3ccccc3)CC2)[nH]c1=O	4.0	4.5	1.3%	1.5%	-3.7%	-0.5
CCCOc1ccc(CC2C(=O)Nc3ccc(Br)cc32)cc1 (configuration not stated)	/	23.0	-0.3%	/	/	-0.5
Cc1cc(Cl)ccc1C(=O)C1CCCN(C(=O)c2ccc3c(c2)OCO3)C1 (configuration not stated)	/	6.9	-3.3%	0.9%	/	0.6
Cc1c(NC(=O)C(C)OC(=O)Cc2ccc(F)cc2)c(=O)n(-c2ccccc2)n1C (configuration not stated)	/	2.1	-1.6%	-7.0%	-0.7%	-0.1

6 entries drawn at random from the list so far:
SMILES	Menin MLL FP FL	TRPML1 blocker	ClpP mod	gsp agonist	gsp antagonist	TRPML1 ag
CC(C)(CC(=O)O)CC(=O)N1CCCN(c2nccc(C(F)(F)F)n2)CC1	-5.1	/	-3.7%	31.7%	8.9%	/
CSc1sc(C(=O)NNC(=O)c2ccc(Cl)cc2)c2c1C=CCC2	1.3	2.7	/	-4.2%	3.9%	-0.3
COc1ccc(-c2noc3c2-c2nc(-c4ccc(Br)cc4)sc2CC3)cc1	/	16.0	-8.0%	26.8%	3.1%	-0.8
CC(C)NC(=O)Cn1c(=O)c2c(ncn2Cc2ccccc2)n(Cc2ccccc2)c1=O	1.2	-26.7	-3.6%	10.5%	-6.3%	2.8
CCOC(=O)C1CCCN(C(=O)Cn2ncn3c(cc4sc(CC)cc43)c2=O)C1 (configuration not stated)	/	5.1	-1.8%	/	/	0.5
Cc1sc2ncnc(N3CCC(C(=O)Nc4nc(-c5cccs5)cs4)CC3)c2c1C	/	21.7	2.1%	-1.5%	-3.8%	-0.3

Next compounds follow.
SMILES	Menin MLL FP FL	TRPML1 blocker	ClpP mod	gsp agonist	gsp antagonist	TRPML1 ag
CCc1ccccc1NC(=O)C1CCN(S(=O)(=O)c2ccccc2)CC1	/	-4.4	-1.4%	/	/	-1.0
C=CCSc1nc(N)c2c(C)c(C)sc2n1	-1.1	6.7	-0.6%	?	3.9%	-0.4
Cc1[nH]c(=O)c(C#N)c(C)c1CCC(=O)Nc1cc(S(C)(=O)=O)ccc1Cl	-2.1	7.1	/	-11.9%[15.4 µM]	-2.4%	-0.6
CCOc1ccc(C(=O)N2CCN(c3ccccn3)CC2)cc1OCC	-17.3	0.3	-4.0%	6.4%[15.4 µM]	10.8%	-1.6
CCOC(=O)C1CCCN(C(=S)NC2CCCCC2)C1 (configuration not stated)	4.5	13.5	/	8.6%[15.4 µM]	-5.5%	-0.4
CC1CCCC(C)N1C(=O)c1ccc(S(=O)(=O)NCc2ccco2)cc1 (configuration not stated)	-0.9	5.4	/	10.2%[15.4 µM]	-4.0%	-0.4
COc1ccc(NC(=O)CSc2nnnn2-c2cccc(OC)c2)cc1	/	9.2	-2.1%	-19.8%	/	-0.5
Cc1cc(C(=O)c2cnc(/N=C/N(C)C)s2)c(F)cc1Cl	2.2	-12.9	/	36.9%[15.4 µM]	3.2%	1.5
COc1cc(NC(=O)c2ccccc2)c(OC)cc1Cl	-1.8	9.4	0.9%	12.1%	-30.7%	-1.0
Cc1ccc(-c2nc(NC(=O)CSc3ncn[nH]3)ns2)cc1	4.6	/	-15.2%	9.3%	-9.2%	/
COc1cc(-c2cc3nc(NCCc4ccncc4)ccn3n2)cc(OC)c1OC	/	-0.2	4.7%	/	/	0.7
CCCn1nc(C(=O)Nc2ccc(N3CCOCC3)cc2)c2ccccc2c1=O	/	-20.7	-0.2%	11.3%	11.7%	0.1
